Bioassay records (PubChem)
HNF4A DNA FP: change in binding of human HNF4 alpha to DNA | P41235 | HNF4a-FITC DNA binding, fluorescence polarization, 1 h | activity change, % at 10 µM | actives 0.3% (n = 360,000) | AID 1224865; in the data active = activity change above about 30%, passing the limit was not always enough;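 also: controls were the assay level and a saturating level of protein; the project sought stronger binding though the title names inhibitors; some compounds called inactive have numbers as strong as hits; positive values seem to mean higher polarization but the record does not say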
E coli growth: inhibitors of Escherichia coli growth. actives 0.21% (n = 330,000). OD600 absorbance (no concentration beside the values). OD600, 23 h; stronger effect = lower value;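 active = OD600 absorbance below the run mean of sample wells minus 3.6 SD, in any replicate, cut at about 0.56 in these data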;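 also: stock transfer was 300 nL into about 60 µL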
ALR H2O2 inh: human ALR oxidase inhibition via reduced H2O2. inhibition, % (no concentration beside the values). actives 3.8% (n = 290,000). purified ALR, DTT oxidation, H2O2 HRP-luminol luminescence. P55789. AID 485317;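 active = mean and each replicate at 75% or more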;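 also: stock transfer was 7.5 nL into about 7.5 µL; 0% = neutral wells and 100% = wells with inactivated enzyme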
Beta2AR agonist: human beta-2 adrenergic receptor agonism by FAP; P07550; Am2.2-beta2AR cells, FAP receptor internalization, flow cytometry; reference of the scale not given here; response, % (no concentration beside the values); actives 0.43% (n = 340,000); AID 504454;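 active = response above a set limit, near 3 SD of response in nonfluorescent compounds, cut at about 42% in these data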;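 also: stock transfer was 100 nL into about 11 µL; a reference agonist was the positive control; negative values mostly stem from fluorescent compounds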
LANA-H2B inh: blocks KSHV LANA binding to histone H2A/H2B. Q9QR71. actives 0.6% (n = 320,000). AID 2629. cell-free LANA-H2A/H2B peptide, fluorescence polarization. inhibition, % (test concentration not listed); in the data active = inhibition mostly above about 10%, no sharp cut-off; inactive = mostly below about 6.7%;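 also: stock transfer was 7.5 nL into about 10 µL; 0% = median of vehicle wells and 100% = median of positive control wells; one replicate is shown; the record names a cut of 25% in any replicate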
Target sequence (Q9QR71 whole entry, looked up): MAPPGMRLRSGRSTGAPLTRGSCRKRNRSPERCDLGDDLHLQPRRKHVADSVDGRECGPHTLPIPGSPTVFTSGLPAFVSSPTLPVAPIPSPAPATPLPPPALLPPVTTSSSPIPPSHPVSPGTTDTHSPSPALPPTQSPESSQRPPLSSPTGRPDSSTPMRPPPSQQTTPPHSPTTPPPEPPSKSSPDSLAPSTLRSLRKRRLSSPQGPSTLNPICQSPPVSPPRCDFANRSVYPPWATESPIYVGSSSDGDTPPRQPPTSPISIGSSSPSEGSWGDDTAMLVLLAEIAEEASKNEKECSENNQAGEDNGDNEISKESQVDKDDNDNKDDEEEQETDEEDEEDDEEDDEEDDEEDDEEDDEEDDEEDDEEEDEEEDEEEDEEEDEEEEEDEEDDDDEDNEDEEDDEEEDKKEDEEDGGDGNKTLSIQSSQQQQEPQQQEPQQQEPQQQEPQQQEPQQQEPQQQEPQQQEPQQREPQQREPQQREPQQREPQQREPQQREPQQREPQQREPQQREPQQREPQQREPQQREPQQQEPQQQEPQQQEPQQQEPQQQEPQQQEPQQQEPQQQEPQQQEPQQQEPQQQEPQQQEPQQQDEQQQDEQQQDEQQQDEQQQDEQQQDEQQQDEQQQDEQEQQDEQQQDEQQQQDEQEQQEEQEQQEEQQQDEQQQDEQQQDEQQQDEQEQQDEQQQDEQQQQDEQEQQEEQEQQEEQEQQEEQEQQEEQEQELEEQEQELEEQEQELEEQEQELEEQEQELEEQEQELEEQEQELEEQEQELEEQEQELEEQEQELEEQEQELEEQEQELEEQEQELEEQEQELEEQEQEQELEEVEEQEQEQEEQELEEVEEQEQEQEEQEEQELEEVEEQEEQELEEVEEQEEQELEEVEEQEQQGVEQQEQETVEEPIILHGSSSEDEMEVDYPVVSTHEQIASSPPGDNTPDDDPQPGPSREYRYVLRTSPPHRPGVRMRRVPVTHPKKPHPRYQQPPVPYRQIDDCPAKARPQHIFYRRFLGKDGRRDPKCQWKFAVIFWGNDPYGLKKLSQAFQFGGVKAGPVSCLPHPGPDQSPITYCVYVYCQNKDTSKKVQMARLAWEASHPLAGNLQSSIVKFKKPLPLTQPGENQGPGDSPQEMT
FGF22 binding: FGF22 (human) thermal shift binding; AID 651658; recombinant FGF22 thermal shift, SYPRO orange fluorescence; percent of sucrose octasulfate shift, DMSO zero; calls only at 9.99 µM; Q9HCT0; actives 1.5% (n = 340,000);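 active = melting point raised past a set limit in the mean and every replicate; three in four hits are not shown here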
UCH37 DUB inh: inhibitors of human deubiquitinating enzyme UCH37. Q9Y5K5. purified proteasome/UCH37, Ub-AMC cleavage fluorescence. inhibition, % (concentration not given with the values). actives 0.33% (n = 330,000). AID 588478;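 active = mean of two replicates above 20%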;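 also: 0% = compound-free wells with enzyme and 100% = wells lacking proteasome; stock transfer was 100 nL into about 20 µL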
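System: Proteasome-associated human UCH37 deubiquitinase; Input: 0.15 nM proteasome in added enzyme buffer; Also added: Ub-AMC substrate from 1 µM stock; Incubation: 30 min compound-proteasome preincubation then 25 min substrate reaction, room temperature; Detection: fluorescence, ex 355 nm, em 460 nm; Read-out: % inhibition of Ub-AMC cleavage fluorescence; Benchmarks: no-proteasome and no-compound wells.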
* hit, by the source's call; i = inactive; / = no result given.

SMILES	HNF4A DNA FP	E coli growth	ALR H2O2 inh	Beta2AR agonist	LANA-H2B inh	FGF22 binding	UCH37 DUB inh
NC(=O)CSc1nnc2ccc(-c3ccc(Cl)cc3)nn12	0.5	0.69	-32	-16	-16	/	-12
CSCC[C@H](NC(=O)[C@@H]1CSC2c3ccccc3C(=O)N21)C(=O)N1CCC[C@H]1CO (stereo partly specified)	-4.4	0.74	/	3	-2.0	i	-0.6
COc1ccc(C(=O)CCN2CCCC(C)C2)cc1 (stereo unspecified)	0.1	0.65	8	-1	-2.0	i	2.6
COc1ccc(CCNc2nc(C)c(C(C)=O)s2)cc1OC	2.0	0.65	-1	14	-0.9	/	7.0
CSc1ccccc1NC(=O)Nc1cccc(Cl)c1Cl	0.2	0.74	1	-4	0.4	/	1.2
O=C(NC(Nc1ccc(F)cc1)(C(F)(F)F)C(F)(F)F)c1cccnc1	-4.2	0.68	-10	-10	-2.4	i	5.4
Cc1ccc(C)c(Cn2nnc3c(=O)[nH]c(C4CCCN(C(=O)c5cccs5)C4)nc32)c1 (stereo unspecified)	5.4	0.65	2	2	4.7	/	5.4
CN(c1ccc(C(=O)O)cc1)S(=O)(=O)c1ccc(Cl)cc1	-3.2	0.71	6	2	-8.4	/	1.0
CCCCSCc1[nH]c(=O)[nH]c1C(=O)CCCCC(=O)OCC	-0.4	0.66	/	8	-0.1	/	4.5
O=C(COc1ccc(F)cc1)N(c1ccccn1)C1CCCCC1	2.9	0.69	-3	2	4.2	/	0.9
O=S(=O)(Nc1ccc(N2CCOCC2)nn1)c1ccccc1	-3.0	0.75	-4	-2	2.5	/	-1.5
CCOC(=O)Cc1nnc(NC(=O)C(CC)Sc2nncn2C)s1 (stereo unspecified)	-0.3	0.76	-6	5	-0.2	i	2.3
O=C(O/N=C1\CCCc2ccccc21)c1ccc(F)cc1	3.6	/	5	3	-4.0	/	/
COc1ccc(C(CNC(=O)c2ccc(S(=O)(=O)Nc3ccccc3C)cc2)N2CCOCC2)cc1 (stereo unspecified)	-1.9	0.69	2	0	-11	i	2.3
CCc1ccc(S(=O)(=O)Nc2cc3c(cc2N2CCOCC2)n(C)c(=O)c(=O)n3C)cc1	-3.8	0.7	-5	1	-4.0	i	9.5
Cc1ccc(S(=O)(=O)/N=C(\N)c2ccc(F)cc2)cc1	2.5	0.63	-8	2	-2.0	i	2.2
COc1ccccc1NC(=O)c1ccccc1NC(=O)c1ccccc1C(=O)O	-2.4	0.69	-23	1	1.4	i	0.1
CC1CC(C)CN(C(=O)COC(=O)c2ccc(N3CCCC3=O)cc2)C1 (stereo unspecified)	1.7	0.69	-2	-5	-0.5	i	2.9
Cc1cccc(CCNC(=O)CCCOc2cc(=O)n(C)c3ccccc23)c1	1.3	0.71	-6	-14	0.9	i	6.4
COc1ccc(/C=N/Nc2nccnc2Cl)cc1	-3.0	/	21	-13	-10	/	/
CCOC(=O)N1CCN(C(=O)Cc2ccc(-n3c(=S)[nH]c4ccccc4c3=O)cc2)CC1	3.5	0.71	56	-6	-1.1	i	2.7
CCOC(=O)c1cc(-c2ccccc2)n(CCC(=O)N2CCN(c3ccc(OC)cc3)CC2)c1C	2.4	0.72	/	-9	-3.0	/	1.2
CSc1nsc(SC)c1NC(=O)OCCc1ccccn1	-1.4	0.67	-15	-5	-1.1	/	0.3
COc1cccc(Nc2ncccc2C(=O)O)c1	-0.5	0.71	0	5	1.9	/	3.7
COc1ccc2oc(C(=O)OC/C(O)=C(\C#N)c3nc4ccccc4[nH]3)c(C)c2c1	16	0.7	-14	3	1.0	i	-1.9
CCS(=O)(=O)Nc1cccc(-c2nc3cccnc3s2)c1C	0.5	0.76	-3	4	-4.1	i	2.7
c1ccc(Cn2nnc3c(N4CCN(Cc5ccc6c(c5)OCO6)CC4)ncnc32)cc1	4.0	0.72	-29	3	1.8	/	0.5
CCn1cc(Br)c(C(=O)Nc2ccc(Cl)cc2Cl)n1	-4.8	0.72	-9	-25	-1.9	/	0.9
CC(=O)NC(Cc1c[nH]c2ccccc12)C(=O)NCCc1ccccc1 (stereo unspecified)	2.6	0.68	-4	4	1.5	i	0.5
COc1ccc(NC(=O)COC(=O)Cn2cnc3ccccc3c2=O)cc1OC	2.5	0.66	/	-1	4.1	i	-1.0
CC(C)[C@H](NC(=O)c1ccccc1)C(=O)O	3.8	0.7	-3	2	0.7	i	-0.3
O=C(CCC(=O)Nc1ccccc1Cl)NNC(=O)c1ccco1	-3.9	0.72	-6	-1	-2.5	/	-0.1
O=S(=O)(Nc1ncnc2sc3c(c12)CCC3)c1ccc(Cl)s1	1.6	0.64	12	-53	1.9	/	-2.8
Cc1cc(C)c(C#N)c(SCC2COc3ccccc3O2)n1 (stereo unspecified)	-1.1	0.74	-8	-6	-3.4	/	-3.7
CCOC(=O)C(=O)Nc1ccccc1C(=O)OCC	2.8	0.67	2	-3	-0.3	i	2.2
COc1cccc(NC(=O)CN2C(=O)COc3ccc(S(=O)(=O)N4CCC(C)CC4)cc32)c1	-5.2	0.71	1	1	-5.8	i	1.5
O=[N+]([O-])c1cc(S(=O)(=O)N2CCOCC2)ccc1N1CCNCC1	3.1	0.64	/	5	/	i	3.7
Cc1ccc2oc(=O)c3cc(C(=O)NCCCN4CCCC(C)C4)sc3c2c1 (stereo unspecified)	1.9	0.67	-4	26	-2.7	i	-39
Cc1noc(/C=C/c2ccco2)c1S(=O)(=O)N1CCC(C(=O)N2CCc3ccccc3C2)CC1	-1.2	0.7	-10	-8	4.1	/	5.9
Cc1ccc(NC(=O)c2sc3nc4c(c(-c5ccco5)c3c2N)CCC4)cc1	3.5	0.73	-9	-3	1.4	/	-0.4
CNC(=O)CC1C(=O)N(c2ccc(OC)cc2)C(=S)N1NC(=O)c1cccc(F)c1 (stereo unspecified)	0.3	0.67	17	-5	6.9	i	2.1
CC[C@]1(C(=O)OC)[C@H]2C(=O)N(C)C(=O)[C@H]2[C@H]2CN=C(SC)N21	6.0	0.69	/	-2	/	i	-0.5
COc1ccc(NC(=O)COCC(=O)Nc2ccc(C)cc2)cc1	-0.9	0.64	-10	-1	-2.1	i	0.6
O=C(NCCNC(=O)c1ccc(Cl)cc1Cl)c1ccccn1	2.4	0.7	5	9	-0.1	i	4.1
Cc1ccc(NS(=O)(=O)c2cccc(C(=O)O)c2)c(C)c1	3.1	0.73	-3	2	-9.4	i	-0.3
Cc1cc2c(c(=O)o1)C(c1ccc([N+](=O)[O-])o1)C(C#N)=C(N)O2 (stereo unspecified)	2.7	0.63	-1	9	-2.3	i	2.2
CCOc1ccc(NS(=O)(=O)c2ccc3[nH]cc(C(=O)NCCOC)c(=O)c3c2)cc1	3.7	0.67	-6	-5	4.2	/	1.7
CCOC(=O)NC(Nc1ccc(C)cn1)(C(F)(F)F)C(F)(F)F	1.1	0.79	-3	-2	0.9	/	1.7
C(=C\c1nnc(-c2cccs2)o1)/c1ccccc1	1.1	0.7	-2	-3	2.0	i	-82
COC(=O)c1ccc(NC(=O)CCN2CCOCC2)cc1	-0.4	0.67	-24	-4	-1.1	i	2.5
C=CCN(Cc1nc(-c2ccc(OC)cc2)no1)C(=O)c1ccc2c(c1)OCO2	1.5	0.66	-30	4	2.4	i	1.2
Cc1c(Cl)cccc1NC(=O)CCC(=O)N/N=C/c1ccc[nH]1	4.5	/	-9	-4	-10	i	/
CC(C)Cc1nc(N2CCOCC2)c(C#N)c2c1COC(C)(C)C2	0.2	0.7	/	4	-0.4	/	-77
COC(CNC(=O)C1CC(=O)N(CCc2ccccc2)C1)OC (stereo unspecified)	-2.4	0.64	-1	3	-0.8	/	1.0
O=C(COC(=O)C1=Cc2ccccc2OC1)NCc1ccco1	0.6	0.65	-10	-4	0.9	i	-22
CCN1CCCC1CNC(=O)Cn1cc(C)c(=O)[nH]c1=O (stereo unspecified)	2.0	/	/	5	/	i	/
COc1cc([N+](=O)[O-])ccc1NC(=O)CSc1nc2ccccc2n1-c1ccccc1	/	0.69	/	/	-3.5	i	5.9
COc1cc(Cl)c(CN2CCCC(CO)(Cc3cccc(Cl)c3)C2)cc1OC (stereo unspecified)	0.8	0.67	/	14	-3.6	i	2.6
CCN1CCCC1CNC(=O)Cn1cnc2sc(C)c(S(=O)(=O)N3CCC(C)CC3)c2c1=O (stereo unspecified)	/	0.69	-3	/	-0.8	/	0.3
O=C(Nc1ccc(Oc2ncnc3cc(Cl)ccc23)nc1)c1ccc(F)cc1	/	0.73	-9	/	-1.9	/	-1.6

Brought forward from above: four entries; new compounds follow.
SMILES	HNF4A DNA FP	E coli growth	ALR H2O2 inh	Beta2AR agonist	LANA-H2B inh	FGF22 binding	UCH37 DUB inh
COc1cc([N+](=O)[O-])ccc1NC(=O)CSc1nc2ccccc2n1-c1ccccc1	/	0.69	/	/	-3.5	i	5.9
COc1cc(Cl)c(CN2CCCC(CO)(Cc3cccc(Cl)c3)C2)cc1OC (stereo unspecified)	0.8	0.67	/	14	-3.6	i	2.6
CCN1CCCC1CNC(=O)Cn1cnc2sc(C)c(S(=O)(=O)N3CCC(C)CC3)c2c1=O (stereo unspecified)	/	0.69	-3	/	-0.8	/	0.3
O=C(Nc1ccc(Oc2ncnc3cc(Cl)ccc23)nc1)c1ccc(F)cc1	/	0.73	-9	/	-1.9	/	-1.6
CC(C)Cn1c(SC(C)C(=O)Nc2ccc(N3CCOCC3)cc2)nc2ccccc21 (stereo unspecified)	-1.1	0.66	-4	3	1.1	/	2.7
O=C(Cn1cncn1)N/N=C/c1ccccc1O	2.9	/	/	-2	-1.1	i	/
COc1ccc(S(=O)(=O)N2CCCCCC2)cc1NC(=O)c1ccccc1S(C)(=O)=O	1.4	0.72	/	-6	-19	i	-1.4
O=C(CCC(=O)Nc1nnc(C2CCCCC2)s1)NCc1cccs1	-2.9	0.71	0	-9	-3.2	/	4.1
CN(CC(=O)Nc1ccc(Cl)cc1)C(=O)CCc1c[nH]c2ccccc12	1.3	0.63	-12	-3	-0.5	i	4.6
O=C(c1ccc(F)cc1)c1c[nH]c(C(=O)NCc2ccco2)c1	0.7	0.8	4	0	2.4	/	7.0
Cn1cc(/C(Cc2ccccc2)=N\O)c2ccccc21	-1.1	/	-4	-2	-1.5	/	/
CC(=O)N1N=C(c2ccc([N+](=O)[O-])cc2)CC1c1ccccc1Cl (stereo unspecified)	-2.6	0.7	33	-4	4.2	i	2.0
N#Cc1cc2cc3c(cc2nc1NCCNC(=S)NCCCN1CCOCC1)OCO3	-4.8	0.71	-7	0	-0.5	i	-192
O=C1N/C(=N\c2ccccn2)SC1Cc1ccccc1Cl (stereo unspecified)	3.0	0.68	2	-20	0.3	i	3.3
Cc1ccc(CS(=O)(=O)CCC(=O)NCCN2CCCC2)cc1	-0.2	0.71	1	0	2.9	i	1.9
O=C(NCCc1ccc(Cl)cc1)C(=O)Nc1cc2c3c(c1)CC(=O)N3CCC2	0.1	0.69	-2	0	0.8	i	4.4
COC(=O)c1sc(NC(=O)c2ccoc2C)nc1C	1.9	0.72	/	1	/	/	0.0

Quoted at random: 5 entries already listed.
SMILES	HNF4A DNA FP	E coli growth	ALR H2O2 inh	Beta2AR agonist	LANA-H2B inh	FGF22 binding	UCH37 DUB inh
O=C(CCC(=O)Nc1nnc(C2CCCCC2)s1)NCc1cccs1	-2.9	0.71	0	-9	-3.2	/	4.1
Cn1cc(/C(Cc2ccccc2)=N\O)c2ccccc21	-1.1	/	-4	-2	-1.5	/	/
O=C(Cn1cncn1)N/N=C/c1ccccc1O	2.9	/	/	-2	-1.1	i	/
Cc1ccc(CS(=O)(=O)CCC(=O)NCCN2CCCC2)cc1	-0.2	0.71	1	0	2.9	i	1.9
O=C(c1ccc(F)cc1)c1c[nH]c(C(=O)NCc2ccco2)c1	0.7	0.8	4	0	2.4	/	7.0

The list is partial (hit frequency here may not be typical).
